RE007 growth inh: qHTS Assay for Inhibitors of the HIV-1 protein Vpr | S. pombe RE007 Vpr strain, BacTiter-Glo ATP luminescence, 24 h; control for the full effect not named in the record | Potency, µM (doses to about 92.2 µM), without a hit: top-dose activity change, negative = less growth | hit rate 0.21% among 360,000; active = well fitted falling curve with a large enough effect; inconclusive = small, poorly fitted or top-dose-only effect; inactive = no such curve, though single readings can be large or run the other way;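 also: % is scaled to controls: 0 for no effect and ±100 for the full control effect; nearly all actives have a fitted effect of over 50% in size; the assay follows cell death caused by Vpr and the record does not say whether a fall means rescue or toxicity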
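Fission yeast RE007 carrying one integrated HIV-1 vpr copy, seeded at OD 0.01 in PMG+AL medium with 23 nL pinned compound. Grown 24 h at 30 degrees; viability read by BacTiter-Glo luminescence after 5 min.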
LASV entry inh: qHTS for Inhibitors of binding or entry into cells for Lassa Virus; hit rate 1.2% among 300,000; Lassa virus pseudotype entry inhibition, cell reporter; control for the full effect not named in the record; Potency, µM (highest dose often 37.9 µM), without a hit: top-dose activity change, negative = inhibition, hits mostly inhibitors; AID 540256, 2011; active means well fitted inhibition curve with a large enough effect; inconclusive means small, poorly fitted or top-dose-only effect, or effect the other way; inactive means flat fitted curve, though single readings scatter; tested in HEK293 cells; also: % is scaled to controls: 0 for no effect and ±100 for the full control effect; nearly all actives have a fitted effect of over 50% in size; luciferase read-out
Cruzain noTriton: qHTS Assay for Promiscuous and Specific Inhibitors of Cruzain (without detergent) | Cruzipain (Trypanosoma cruzi), P25779 | purified cruzain, Z-FR-AMC fluorescence, no detergent | hit rate 2.3% among 200,000 | Potency, µM, without a hit: max response, negative = inhibition, hits mostly inhibitors; active = well fitted curve in the direction sought with a large enough effect; inconclusive = small, poorly fitted or top-dose-only effect, or another doubt; inactive = no such curve, though single readings can be large; an effect the other way counts as inactive or inconclusive;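 also: plate controls were enzyme without inhibitor for no effect and buffer without enzyme for full effect; nearly all actives have a fitted effect of over 40% in size; top concentration of the series not given in the record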
Target sequence (P25779 123-467 limits assumed): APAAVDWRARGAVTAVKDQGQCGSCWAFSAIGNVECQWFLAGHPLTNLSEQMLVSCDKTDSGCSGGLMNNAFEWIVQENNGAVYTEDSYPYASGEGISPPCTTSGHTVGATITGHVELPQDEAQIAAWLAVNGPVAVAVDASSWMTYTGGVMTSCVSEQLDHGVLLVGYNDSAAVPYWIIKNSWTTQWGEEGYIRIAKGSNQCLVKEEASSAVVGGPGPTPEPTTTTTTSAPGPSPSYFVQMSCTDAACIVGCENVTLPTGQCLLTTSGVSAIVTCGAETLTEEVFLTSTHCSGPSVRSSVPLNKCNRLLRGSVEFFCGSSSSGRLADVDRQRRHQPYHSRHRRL
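Purified cruzain at 1.5 nM, pre-incubated 15 min with compound at room temperature in 100 mM sodium acetate pH 5.5, 5 mM DTT, 0.00005% Triton X-100. Reaction started with 2 uM Z-FR-AMC; AMC fluorescence increase over 60 s gives rate.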
Cruzain Triton: qHTS Assay for Promiscuous and Specific Inhibitors of Cruzain (with detergent) | purified cruzain, Z-FR-AMC fluorescence, 0.01% Triton | Potency, µM, for inactives: max response, negative = inhibition, actives largely listed as inhibitors | hit rate 0.43% among 200,000 | AID 1478, 2009; active = well fitted curve in the direction sought with a large enough effect; inconclusive = small, poorly fitted or top-dose-only effect, or another doubt; inactive = no such curve, though single readings can be large; an effect the other way counts as inactive or inconclusive;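 also: plate controls were neutral wells for no effect and buffer without enzyme for full effect; nearly all actives have a fitted effect of over 40% in size; top concentration of the series not given in the record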
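Sodium acetate buffer (100 mM, pH 5.5) containing 5 mM DTT and 0.01% Triton X-100 hosted 1.5 nM cruzain and test compound for 15 min at room temperature. Cleavage of 2 uM Z-FR-AMC was then tracked by fluorescence.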
NS1 function inh: qHTS Assay for Inhibitors of Influenza NS1 Protein Function | hit rate 0.4% among 270,000 | Potency, µM (titrated, usually from 46.1 µM), inactives show top-dose activity, positive = more growth | AID 2326, 2010 | S. cerevisiae slowed by influenza A NS1, growth recovery by OD600; also: actives are rising curves; nearly all actives have a fitted effect of over 50% in size
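OD600 was taken as the measure of yeast growth restored by compound in an NS1-expressing S. cerevisiae strain. Cells had been washed out of glucose medium and diluted 1:100 into galactose -URA medium, pH 6.0.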
Marburg entry inh: qHTS for inhibitors of binding or entry into cells for Marburg Virus; Marburg virus pseudotyped entry inhibition, cell reporter; control for the full effect not named in the record; about a third of the inactives were read at about 46 µM; Potency, µM (titrated, usually from 37.8 µM), for inactives: at the top dose activity change, negative = inhibition, most hits filed as inhibitors; hit rate 1.8% among 300,000; active = well fitted inhibition curve with a large enough effect; inconclusive = small, poorly fitted or top-dose-only effect, or effect the other way; inactive = flat fitted curve, though single readings scatter; tested in HEK293 cells; about a fifth of its hits are not listed in these tables; also: % is scaled to controls: 0 for no effect and ±100 for the full control effect; luciferase read-out
2A StopGo: High Throughput Screening for Foot and Mouth Disease Virus Antivirals. human cells with a luciferase reporter of 2A StopGo recoding; control for the full effect not named in the record. hit rate 1.2% among 410,000. Potency, µM (top dose mostly 57.9 µM), inactives show top-dose signal change, negative = less light. AID 1159524, 2015; active = well fitted falling curve with a large enough effect; inconclusive = small, poorly fitted or top-dose-only effect; inactive = no such curve, though single readings can be large or run the other way; tested in HEK293T cells; also: % is scaled to controls: 0 for no effect and ±100 for the full control effect; nearly all actives have a fitted effect of over 45% in size; luciferase light after 4 h
SARS PLP yeast: qHTS of Yeast-based Assay for SARS-CoV PLP | S. cerevisiae expressing SARS-CoV PLpro, growth rescue; control for the full effect not named in the record | Potency, µM (doses to about 32.9 µM), inactives show top-dose activity, positive = growth rescue | hit rate 0.19% among 330,000; also: 0% is about no effect; nearly all actives have a fitted effect of over 55% in size; growth read by luminescence after 48 h
Active calls of the source: *; u = inconclusive; x = not tested or not shown; [ ] = remark or other dose. Unless noted, calls follow the shape of the dose curve; as a rule, active means well fitted rising curve with a large enough effect; inconclusive means small, poorly fitted or top-dose-only effect; inactive means no such curve, though single readings can be large or run the other way. Potency is read from the fitted curve at half-maximal effect.

SMILES,RE007 growth inh,LASV entry inh,Cruzain noTriton,Cruzain Triton,NS1 function inh,Marburg entry inh,2A StopGo,SARS PLP yeast
Cn1cc(C(=O)c2ccccc2C(=O)O)cc1C(=O)C(Cl)(Cl)Cl,2.3%,13.9%[46.1 µM],x,x,1.6%,22.4%[46.1 µM],-3.0%,-1.0%
O=C(Cc1csc(NC(=O)Nc2ccc(Cl)cc2)n1)NCc1cccnc1,8.5%,3.7%,x,x,x,-15.3%,-19.7%,-0.4%
CCN1CCN(CCNC(=O)c2ccc(CS(=O)(=O)c3c(Cl)cccc3Cl)o2)CC1,-0.2%,x,-6.4%,-1.5%,u,0.0%,-11.6%,-3.2%
O=C(N/N=C/c1ccccc1F)c1cccc2ccccc12,-11.4%,x,x,x,-2.1%,x,20.3%,0.6%
O=C(O)c1ccc(C[n+]2c(-c3ccccc3)csc2Nc2ccccc2)cc1,4.5%,0.7%,6.0%,-12.4%,6.4%,-17.1%,-26.4%,9.8%
CCCCn1c(O)c(N=Nc2ccccn2)c2ccccc21,-8.0%,u,11.7%,-6.5%,-17.9%,u,-23.9%,-59.9%
O=C(OCc1ccc(COC(=O)c2ccccn2)cc1)c1ccccn1,-0.4%,-0.2%,3.0%,-1.0%,-12.8%,12.8%,40.2%[activator],-6.4%
COC(=O)C1C(c2ccccc2)C(C(=O)N2CCN(C)CC2)C1c1ccccc1 (stereo not given),12.1%,-9.2%,3.5%,4.0%,-1.8%,-28.3%,1.4%,-0.3%
CCn1c(SCC(=O)Nc2cc(C)nn2-c2ccccc2)nnc1-c1cccs1,7.2%,u,x,x,-1.6%,14.9%,-11.5%,5.9%
CCOC(=O)C1=C(Nc2ccccc2)CC(C)(O)C(C(=O)OCC)C1c1ccccc1 (stereo not given),4.6%,8.0%,20.4%,-3.0%,-24.1%,2.8%,-16.2%,-13.6%
Cc1ccc(-c2nnc(Nc3ccccc3)c3ccccc23)cc1S(=O)(=O)N1CCN(C)CC1,x,-21.9%[46.1 µM],-3.8%,-2.7%,x,0.8%[46.1 µM],-18.0%,x
O=c1c(N=Nc2ccc(O)cc2)c(-c2ccccc2)[nH]n1-c1ccc([N+](=O)[O-])cc1,-2.2%,-17.9%,x,x,7.5%,1.7%,-20.5%,5.8%
CCOC(=O)c1ccc(NC(=S)N2CCN(c3ccc(N4CCOCC4)nn3)CC2)cc1,-17.3%,8.6%[46.1 µM],x,x,x,-6.3%[46.1 µM],-19.9%,1.6%
CC(=O)Oc1ccc(/C=C(\NC(=O)c2ccco2)C(=O)NCc2ccccc2)cc1,6.7%,15.2%,x,x,-1.5%,-0.8%[46.1 µM],-4.9%,-1.0%
Cc1ccc([N+](=O)[O-])cc1S(=O)(=O)Nc1ccc(O)c(Sc2ncn[nH]2)c1,12.9%,x,x,x,13.8%,x,0.5%,2.8%
Cc1ccc(S(=O)(=O)N(C)CC(=O)N2CCCCCCC2)cc1,1.2%,-10.5%,x,x,x,12.7%[46.1 µM],-0.4%,-3.9%
CCc1ccc(NCc2cc3ccc(OC)cc3n(CC(=O)Nc3ccc(F)cc3F)c2=O)cc1,x,-17.4%[46.1 µM],-29.5%,-3.0%,x,x,-11.5%,x
O=C(O)C1CCC(CN(Cc2cccc(Br)c2)C(=S)Nc2ccccc2F)CC1 (stereo not given),1.8%,3.0%[46.1 µM],x,x,x,u,-12.3%,-0.1%
O=C(NC(=O)c1c(F)cccc1F)Nc1cccc(Oc2ncc(Cl)cn2)c1,8.9%,-15.5%,x,x,x,6.0%,8.1%,x
O=C(/C=C/c1cccs1)c1cc(Br)ccc1OC(=O)N1CCOCC1,-19.7%,u,u,-13.3%,-41.3%,u,u,-43.8%
O=C(CCC1N=C2c3ccccc3N=C(SCC(=O)Nc3ccc(F)cc3)N2C1=O)NCc1ccco1 (stereo not given),x,-1.4%[46.1 µM],16.3%,-1.9%,x,x,0.0%,x
CCS(=O)(=O)Nc1ccc(-c2nnc(SCC(=O)OC)o2)cc1,-0.7%,-14.1%,-0.6%,0.9%,-0.8%,u,-18.9%,3.2%
NS(=O)(=O)c1ccc(CCNC(=O)COc2ccc3c4c(c(=O)oc3c2)CCC4)cc1,5.8%,x,x,x,-3.1%,x,2.7%,-2.8%
COc1ccccc1Oc1cc(-n2nc(C)cc2C)ncn1,1.5%,1.2%,-4.5%,-5.5%,-11.3%,2.2%,-15.0%,-28.7%
Nc1cc(OC(=O)c2ccco2)nn1S(=O)(=O)c1ccc(F)cc1,-15.0%,3.4%,20µM*,25.1µM*,-20.7%,1.6%,1.5%,-11.7%
COc1ccc(CCN2C(=O)CC(NC34CC5CC(CC(C5)C3)C4)C2=O)cc1OC (stereo not given),-4.6%,-13.8%,x,x,-9.7%,-15.0%[46.1 µM],u,-4.3%
CC(C)(C)c1nnc(NS(=O)(=O)c2cc(Cl)ccc2Cl)s1,10.3%,x,x,x,-103.2%,x,-4.9%,0.8%
CSc1ccccc1NC(=O)N1CCCC(C(=O)c2ccc3c(c2)OCO3)C1 (stereo not given),-5.2%,5.0%[46.1 µM],x,x,-5.0%,0.5%[46.1 µM],-2.4%,-1.1%
O=C1C2=C(SCCS2)C(=O)N1c1ccccc1,8.9%,-0.4%,-9.9%,-3.0%,1.0%,-8.3%,36.6%[activator],0.4%
O=C(NNC(=O)C1CC(c2cccs2)=NO1)NC1CCCCC1 (stereo not given),0.2%,11.2%,x,x,1.6%,-3.4%[46.1 µM],8.4%,0.7%

Record cards (already shown):
Results for O=C(NNC(=O)C1CC(c2cccs2)=NO1)NC1CCCCC1 (stereo not given) = RE007 growth inh: 0.2%; LASV entry inh: 11.2%; Cruzain noTriton: x; Cruzain Triton: x; NS1 function inh: 1.6%; Marburg entry inh: -3.4%[46.1 µM]; 2A StopGo: 8.4%; SARS PLP yeast: 0.7%
Results for Cn1cc(C(=O)c2ccccc2C(=O)O)cc1C(=O)C(Cl)(Cl)Cl = RE007 growth inh: 2.3%; LASV entry inh: 13.9%[46.1 µM]; Cruzain noTriton: x; Cruzain Triton: x; NS1 function inh: 1.6%; Marburg entry inh: 22.4%[46.1 µM]; 2A StopGo: -3.0%; SARS PLP yeast: -1.0%

(more compounds)
SMILES,RE007 growth inh,LASV entry inh,Cruzain noTriton,Cruzain Triton,NS1 function inh,Marburg entry inh,2A StopGo,SARS PLP yeast
COc1cccc(/C=N/NC(=O)c2ccc([N+](=O)[O-])cc2Cl)c1O,x,14.6µM*,5.2%,-10.0%,-5.9%,u,0.4%,u
COc1ccc(Nc2c3c(c(C#N)c4nc5ccccc5n24)CCC3)cc1,-8.0%,-4.1%,-1.5%,11.5%,21.2%,-9.3%,-24.7%,u
COc1ccccc1CNC(=O)c1ccc(CSc2nc3ccncc3n2Cc2cccc(F)c2)cc1,x,x,-18.7%,-2.1%,x,-5.6%[46.1 µM],-22.8%,x
N#CC1=C(N)C2=CCCC[C@H]2[C@H](c2ccc(Br)cc2)C1(C#N)C#N,22.4%,-45.0%,20.7%,-14.9%,3.1%,u,u,-4.0%
COc1ccc(S(=O)(=O)NCC(c2cccnc2)N2CCN(c3ccccc3OC)CC2)cc1C (stereo not given),17.0%,u,9.8%,1.0%,-23.1%,-12.4%,-16.9%,-7.0%
Cc1ccc2ncc(C(=O)c3ccc(C)c(C)c3)c(S(=O)(=O)c3ccc(F)cc3)c2c1,x,x,u,-6.2%,x,u,-15.9%,x
CC1=NN(C(=O)COc2cc(C)ccc2C(C)C)C(O)(c2ccccc2)C1 (stereo not given),12.3%,-17.0%,x,x,-5.1%,u,-8.0%,0.3%
Cc1c(C)n(Cc2ccccc2)c2ccc(C(=O)N3CCN(c4ccccc4F)CC3)cc12,x,-8.7%[46.1 µM],u,-1.1%,x,x,7.1%,x
COc1cccc(C2CC(=O)NC3=C2C(=O)CCC3)c1 (stereo not given),2.6%,-3.4%,-1.3%,1.5%,5.1%,-0.7%,-6.8%,-5.0%
Cc1ccc2nc3c(c(Nc4ccc5c(c4)OCCO5)c2c1)CCC3,0.3%,14.1µM*,-21.1%,-3.3%,-26.4%,u,-44.2%,8.9%
Cc1ncc(CO)c(/C=N/Nc2ccc(C(F)(F)F)cn2)c1O,1.6%,u,x,x,3.5%,3.98µM*,6.0%,7.3%
COc1ccccc1C1=NCc2nnc(C)n2-c2ccc(Cl)cc21,3.4%,9.3%,-18.6%,-0.8%,3.7%,2.5%,-10.5%,5.9%
CC(=O)Nc1ccc(Cc2nc3ccccc3[nH]2)cc1,-3.5%,1.2%,x,x,-0.8%,-3.9%[46.1 µM],10.3%,0.2%
Cc1ccc(/C=C(\NC(=O)c2ccccc2)C(=O)NCCN2CCOCC2)o1,-0.2%,x,x,x,0.0%,x,-23.5%,-0.5%
CCCCNC(=O)OCC(CC)NC(=O)OCC(C)C (stereo not given),-4.0%,1.7%,2.9%,7.1%,-7.1%,17.1%,-3.9%,3.9%
COc1cc2c(cc1OC)C(COc1ccccc1OC)N(C(C)=O)CC2 (stereo not given),2.6%,x,x,x,-1.7%,x,0.1%,-1.2%
CCC/C(O)=C1\C(=O)CC(C)(C)CC1=Nc1ccc(OC)cc1OC,-14.4%,-24.2%,-3.5%,-2.4%,-64.5%,2µM*,0.0%,2.1%
CCn1nc(C(=O)OCC(=O)N2c3ccccc3CC2C)c2ccccc2c1=O (stereo not given),-9.7%,0.4%,19.0%,-6.5%,-12.5%,-13.5%,-1.7%,-1.4%

Compound activity (PubChem BioAssay)
